Compound activity from PubChem BioAssay.
KCNQ2 enhance: potentiators of rat KCNQ2 potassium channel | CHO-K1 KCNQ2, FluxOR thallium flux fluorescence; hits give high values | B-score at 10 µM | Potassium voltage-gated channel subfamily KQT member 2 (Rattus norvegicus), O88943 | actives 0.54% (n = 310,000);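 active = fluorescence ratio B-score at least 3 SD of library B-scores, with initial fluorescence B-score within 3 SD, cut at about 5.3 in these data; same plate scores as AID 2156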;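 also: B-score of peak minus minimum over baseline fluorescence ratio after K+ and Tl+ stimulus; positive B-score means potentiation of KCNQ2 with more thallium influx and brighter signal; only the inactives scoring about 0 or higher are listed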
Target sequence (O88943 whole entry, looked up): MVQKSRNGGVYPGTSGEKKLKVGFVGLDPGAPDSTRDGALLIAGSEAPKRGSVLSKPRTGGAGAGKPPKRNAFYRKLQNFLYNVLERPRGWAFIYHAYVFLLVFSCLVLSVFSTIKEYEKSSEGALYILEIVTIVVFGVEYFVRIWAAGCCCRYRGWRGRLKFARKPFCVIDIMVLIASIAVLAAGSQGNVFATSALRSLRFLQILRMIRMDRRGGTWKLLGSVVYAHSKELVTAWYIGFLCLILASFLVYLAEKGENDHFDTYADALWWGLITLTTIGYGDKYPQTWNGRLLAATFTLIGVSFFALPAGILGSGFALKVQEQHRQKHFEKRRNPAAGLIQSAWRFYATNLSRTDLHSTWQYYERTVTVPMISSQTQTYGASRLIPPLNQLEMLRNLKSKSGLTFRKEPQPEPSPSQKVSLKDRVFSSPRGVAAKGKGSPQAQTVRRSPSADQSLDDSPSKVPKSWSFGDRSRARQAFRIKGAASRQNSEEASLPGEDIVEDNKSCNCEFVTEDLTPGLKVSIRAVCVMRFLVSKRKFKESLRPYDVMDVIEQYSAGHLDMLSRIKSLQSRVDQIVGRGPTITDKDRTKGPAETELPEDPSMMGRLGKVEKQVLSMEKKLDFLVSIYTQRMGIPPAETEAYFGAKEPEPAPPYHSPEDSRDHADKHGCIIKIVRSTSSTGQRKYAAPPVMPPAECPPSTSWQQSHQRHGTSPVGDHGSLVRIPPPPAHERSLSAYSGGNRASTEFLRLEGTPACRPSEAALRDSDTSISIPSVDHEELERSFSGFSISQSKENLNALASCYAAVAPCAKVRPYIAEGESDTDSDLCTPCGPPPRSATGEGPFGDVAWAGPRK
KCNQ2 enhance baseline: also measured in KCNQ2 enhance; calls as there; B-score; compound at 10 µM; measured here: initial fluorescence intensity artifact check;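 brightness before thallium and not channel activity; 0 = typical well and far values either way flag optical interference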
An asterisk follows results filed as active. Some of the compounds tested (hit frequency here may not be typical).

KCNQ2 enhance	KCNQ2 enhance baseline	canonical_smiles
0.15	0.79	O=C(NC(Cc1c[nH]c2ccccc12)C(=O)N/N=C/c1ccc(Br)cc1)c1cccs1 (stereo not drawn)
1.3	-0.76	Cc1nn(-c2ccc(F)cc2)c(Cl)c1/C=N/NC(=O)c1ccc(O)cc1
0.39	-0.57	O=C1CSC(c2ccccc2[N+](=O)[O-])N1c1ccccc1 (stereo not drawn)
0.6	0.01	N/C(=N\OC(=O)Oc1ccccc1)c1ccc([N+](=O)[O-])cc1
0.95	-1.4	CC(=O)Nc1ccccc1C(=O)C(=O)Nc1ccc(Cl)cc1
1.4	1.4	CCCn1c(SCC(=O)NC2CCCC2)nnc1C(C)C
0.92	-4.3	COc1ccc(-n2c(C)c([N+](=O)[O-])c3ccc(O)c(CN(C)C)c32)cc1
0.35	0.58	COC(=O)c1scc(C)c1NC(=O)c1ccc(Cl)cc1
0.04	-0.78	CCN(CC(=O)NCc1ccc(Cl)cc1)C(=O)/C=C/c1ccco1
0.36	0.54	CN1CC(=O)N2[C@H](c3ccc4c(c3)OCO4)c3[nH]c4ccccc4c3C[C@@H]2C1=O

Next section.
KCNQ2 enhance	KCNQ2 enhance baseline	canonical_smiles
0.14	0.47	c1ccc(CSc2ncnc3c2cnn3Cc2ccccc2)cc1
1	0.18	Cc1cc(C(C)(C)C)oc1C(=O)OCC(=O)NC1CCCCC1
0.49	0.19	COc1ccccc1NC(=O)CCCCC(=O)Nc1ccccc1OC
0.68	-0.59	NC(=O)c1ccccc1N/C=C/C(=O)c1ccccc1
2.4	-0.86	O=C(Cc1cccs1)Nc1nnc(COc2ccccc2)s1
0.01	-1.9	CCCc1ccc(C(=O)NNC(=O)c2ccc(Cl)cc2)cc1
1.7	0.58	COc1cc(/C=N/NC(=O)/C(=C\c2ccc([N+](=O)[O-])cc2)NC(=O)c2ccccc2)cc(OC)c1O
0.03	-1.3	COc1ccc(-c2noc(-c3ccco3)n2)cc1OC
0.05	-0.46	Cc1ccc(C(=O)COC(=O)c2ccc(Br)o2)cc1C
0.72	-0.26	CC(=O)Nc1ccc(NC(=O)c2ccc(Cn3cc(Cl)cn3)cc2)cc1

(more compounds)
KCNQ2 enhance	KCNQ2 enhance baseline	canonical_smiles
2.1	-1.6	Cc1ccc(C2=NN(C(=O)CCC(=O)O)C(c3cccs3)C2)cc1 (stereo not drawn)
0.14	-0.14	COc1ccc(-n2ncc3c(NCCN4CCOCC4)ncnc32)cc1
1.4	0.92	COc1ccc(-c2[nH]c(-c3ccc(Cl)cc3)nc2SCC(=O)Nc2nccs2)cc1
0.59	1.6	CC(=O)N(c1cccc(Br)c1)C1C=CS(=O)(=O)C1 (stereo not drawn)
0.1	0.57	Cc1cc(Oc2ccc([N+](=O)[O-])cc2)nc(N2CCOCC2)n1
2.2	0.66	Fc1ccccc1COc1cccc(/C=N/n2cnnc2)c1
1.2	-0.01	CC(=O)N/N=C(\C)CC(=O)Nc1ccc2c(c1)OCCO2
1.1	-0.18	COc1ccc(CNCC(=O)Nc2cccc(S(N)(=O)=O)c2)cc1
2.1	-1.2	COCCOC(=O)C1=C(C)NC2=C(C(=O)CCC2)C1c1ccc(N(C)C)cc1 (stereo not drawn)
0.51	0.44	Cc1cc(C(=O)NCc2cc(C(=O)O)co2)co1

One compound at a time, from the list above. Values in the order: KCNQ2 enhance | KCNQ2 enhance baseline
CC(=O)N(c1cccc(Br)c1)C1C=CS(=O)(=O)C1 (stereo not drawn) is listed as 0.59 | 1.6
Cc1cc(C(=O)NCc2cc(C(=O)O)co2)co1 is listed as 0.51 | 0.44
COc1ccc(-c2[nH]c(-c3ccc(Cl)cc3)nc2SCC(=O)Nc2nccs2)cc1 is listed as 1.4 | 0.92
COc1ccc(CNCC(=O)Nc2cccc(S(N)(=O)=O)c2)cc1 is listed as 1.1 | -0.18
Fc1ccccc1COc1cccc(/C=N/n2cnnc2)c1 is listed as 2.2 | 0.66

Further entries.
KCNQ2 enhance	KCNQ2 enhance baseline	canonical_smiles
0.34	-0.23	Cc1cccc(Nc2nc(N)c([N+](=O)[O-])c(NCc3ccco3)n2)c1
0.6	-0.91	CCOc1ccccc1-n1c(SCC(N)=O)nnc1-c1ccc(O)cc1
0.08	-0.93	Cc1c(C)n2c(SCC(=O)NCc3ccc4c(c3)OCO4)nnc2[nH]c1=O
2.5	0.16	CCCc1cc(-c2n[nH]c(=S)n2C(C)c2ccccc2)cs1 (stereo not drawn)
1.6	-1.1	CNC(=S)N/N=C/c1ccc(OCc2ccccc2)c(Br)c1
0.58	-0.76	CCC(C)Nc1nc(C)nc2c1oc1ccccc12 (stereo not drawn)
0.03	-1.1	CN(C)S(=O)(=O)c1cccc(NC(=O)COc2ccc(C(=O)c3ccccc3)cc2)c1
1.3	1.6	COCCn1c(SCc2cc(=O)n3ccsc3n2)nnc1-c1ccncc1
0.91	0.01	C/C(=N\NC(=O)CNc1cccc(C(F)(F)F)c1)c1cccs1
0.64	0.21	NC(=O)c1ccc(-n2nnnc2Oc2ccc(Br)cc2)cc1

Additional compounds follow:
KCNQ2 enhance	KCNQ2 enhance baseline	canonical_smiles
0.02	2	O=C(Nc1ccc2c(c1)OCO2)Nc1ccc(Cl)cc1Cl
0.87	-0.06	O=C(N=C1SCC(=O)N1c1ccccc1Cl)c1ccco1
0.59	1.2	Cc1cccc(NC(=O)c2ccc(Cl)c(NC(=O)c3ccncc3)c2)c1C
0.21	1	CCOC(=O)C(C)n1cnc2c(nnn2-c2ccccc2)c1=O (stereo not drawn)
0.55	1.6	CS(=O)(=O)N(CC(=O)Nc1ccc(F)c(F)c1)c1cccc([N+](=O)[O-])c1
0.04	-1.1	CCN(CCn1cccn1)C(=O)CCc1nnc(-c2ccccc2)o1
2.9	1.2	CN(C(=O)CSc1nc2c(c(=O)[nH]1)CCCC2)C1CCCCC1
1	1.3	CCCNS(=O)(=O)c1ccc(OCC(=O)N2CCc3ccccc3C2)c(C)c1
1.8	0.6	CC(=O)N/N=C(\C)CCc1ccccc1
2.3	-0.98	COc1ccccc1N1CCN(C2CCCN(Cc3cc(F)cc(F)c3)C2)CC1 (stereo not drawn)

More results follow:
KCNQ2 enhance	KCNQ2 enhance baseline	canonical_smiles
0.02	0.1	O=P1(O)C=C(c2ccccc2)OC(c2ccccc2)=C1
0.34	1.7	CN1CCN(C(=O)CSc2nnc(COc3ccc(Cl)cc3)o2)CC1
1.2	-1.4	CC(C)n1c(SCC(=O)NC2CCCCC2)nnc1-c1ccco1
0.54	-0.73	CCCCc1ccc(Nc2nc(N3CCOCC3)nc(N3CCOCC3)n2)cc1
0.01	0.05	CC1(C)CC(=O)C(C=Nc2ccncc2)=C(O)C1
0.3	1.5	Cc1ccc(NC(=O)CCN2C(=O)C3CCCCC3C2=O)c(O)c1 (stereo not drawn)
0.68	0.39	COc1ccccc1C(=O)N1CCN(C(=O)c2ccncc2)CC1
0.31	-0.5	O=C(O)CSC1c2ccccc2C(=O)N1c1ccccc1 (stereo not drawn)
0.04	-0.98	O=C(CCC(=O)OC(C(=O)c1ccccc1)c1ccccc1)Nc1ccccc1 (stereo not drawn)
0.03	1.1	COc1cccc(NS(=O)(=O)c2ccc(Br)s2)c1

Next section:
KCNQ2 enhance	KCNQ2 enhance baseline	canonical_smiles
1.2	-0.21	O=c1c2ccccc2nnn1CSc1nc2ccccc2[nH]1
15*	-0.03*	CC(C)Cn1c(=O)c(C(=O)NCc2ccccn2)c(O)c2ccccc21
0.79	0.3	O=C(CCN1C(=O)/C(=C/c2ccc(F)cc2)SC1=S)NCCc1cnc[nH]1
1.1	-1.2	Cc1cc(Cl)ccc1Oc1ncnc2onc(C)c12
0.27	-0.81	O=C(CSc1nnc(-c2cccnc2)s1)Nc1cccc(C(=O)O)c1
2.5	-0.18	O=C(CSc1n[nH]c(=O)n1Cc1ccco1)Nc1ccccc1
0.01	0.21	COc1ccccc1NC(=O)C1=C(C)Nc2nc(-c3cccs3)nn2C1c1cccc(O)c1 (stereo not drawn)
0.09	0.15	O=C(Nc1ccc(Br)cc1)c1cccc(N2C(=O)C3C4CCC(C4)C3C2=O)c1 (stereo not drawn)
0.78	0.4	CN1CCN(S(=O)(=O)c2cccc(C(=O)N(Cc3ccccc3)c3ccccc3)c2)CC1
5.2	0.01	CCC(C)c1ccc(C(C)NC(=S)NCc2ccc(F)cc2)cc1 (stereo not drawn)

The results go on:
KCNQ2 enhance	KCNQ2 enhance baseline	canonical_smiles
1.4	0.08	COc1ccc(OC)c(CN2CCN(C(=O)c3cccc(S(=O)(=O)Nc4ccccc4OC)c3)CC2)c1
0.16	-0.54	CCOC(=O)N1CCN(C(=O)C(CC(C)C)NS(=O)(=O)c2ccc3c(c2)oc(=O)n3C)CC1 (stereo not drawn)
2.6	-3.3	CCOC(=O)c1[nH]c2ccc(OC)cc2c1NC(=S)N1CCN(c2cccc(Cl)c2)CC1
1.6	-1.5	Cc1c(C)c2ccc(OCC(=O)N3CCN(c4ccccc4)CC3)cc2oc1=O
0.95	0.23	CC(=O)c1ccc(NC(=O)Nc2ccc(Br)cc2C)cc1
0.15	-0.83	O=C(NCCc1ccccc1)c1ccc2nc3cc(Cl)ccc3c(=O)n2c1
4.3	-0.42	O=C(NC(=S)N1CCCc2ccccc21)c1ccc(Br)cc1
0.02	0.03	Cc1cccc2sc(NC(=O)CCn3cccc3)nc12
1.6	1.6	CCOc1ccc(NC(=O)NCCCSC2CCCCC2)cc1
1.6	-1.1	CCOC(=O)c1cnc(-n2nc(C)cc2C)nc1N1CCOCC1

The list continues:
KCNQ2 enhance	KCNQ2 enhance baseline	canonical_smiles
0.67	-1.5	CCOC(=O)N1CCN(c2cc(N(C)CCO)c([N+](=O)[O-])c3nonc23)CC1
0.39	-0.25	COc1ccc(-c2[nH]ncc2CN2CCN(c3ccccn3)CC2)c(OC)c1
3	-1.5	CC1(C)NC(=O)N(CC(O)COc2ccc(-c3ccccc3)cc2)C1=O (stereo not drawn)
0.3	0.01	COc1ccc(CCNC(=O)COc2ccc(S(=O)(=O)N3CCOCC3)cc2)cc1
1.8	0.04	Cc1nc2ccccc2n1CCOc1ccc(F)cc1
0.02	0.23	COc1ccccc1CC(=O)NNS(=O)(=O)c1cccc([N+](=O)[O-])c1
0.34	0.96	COc1ccc(N/C=C(\C#N)S(=O)(=O)c2ccc(OC)cc2)cc1
0.4	-0.75	COc1cc(/C=C/C(=O)OCC(=O)Nc2c(C)n(C)n(-c3ccccc3)c2=O)ccc1OCC#N
0.17	0.01	S=C(NCc1cccnc1)NCc1cccnc1
3	-2.3	O=C(NCC(=O)N(c1ccc(F)cc1)C(C(=O)NC1CCCC1)c1cccnc1)c1ccco1 (stereo not drawn)

The list continues:
KCNQ2 enhance	KCNQ2 enhance baseline	canonical_smiles
0.41	-1.3	CCOc1ccc(NC(=O)CN2CCN(C(=O)C3CCCO3)CC2)cc1 (stereo not drawn)
0.02	-0.9	O=C(COc1ccccc1)NNc1nc2ccccc2s1
2.1	-0.92	CC1CCc2sc3ncnc(N4CCN(CCO)CC4)c3c2C1 (stereo not drawn)
1.4	-0.93	O=C(CN1CCN(S(=O)(=O)c2ccc3ccccc3c2)CC1)Nc1ccc(N2CCOCC2)cc1
0.21	0	Cc1cc(C(=O)COc2ccc(F)cc2Br)c(C)n1C
0.48	-0.89	COc1ccc(CCNC(=O)c2cc3c(=O)n4ccccc4nc3n(Cc3ccco3)c2=N)cc1OC
0.17	-1.2	COc1nc(Nc2ccccc2)nc(OC)n1
0.75	3	Cc1cc(=O)nc2c3ccccc3n(CC(=O)NCCCN3CCCC3=O)n12
0.45	0.14	Cc1ccc(CNC(=O)C2CCC(=O)N(CCCN3CCOCC3)C2)cc1 (stereo not drawn)
0.01	-2.2	CN(C)CCCn1c(=O)n(CCc2ccccc2)c(=O)c2c3c(sc21)CCCCC3

Next section:
KCNQ2 enhance	KCNQ2 enhance baseline	canonical_smiles
0.99	-0.1	COCCCn1ccc(O)c(Cc2ccc(F)cc2)c1=O
0.01	-0.74	COC(=O)c1cc([N+](=O)[O-])ccc1N1CCN(Cc2ccccc2)CC1
0.39	-0.2	Cc1cc(=O)oc2c(C)c(OCC(=O)N3CC[C@@]4(O)CCCC[C@H]4C3)ccc12
1.4	0.02	CC(C)(C)C(=O)N(Cc1ccc(Cl)cc1)c1cnccn1
0.96	1.1	O=C(Nc1ccc(Br)cc1)c1cccc(-n2cnnn2)c1
1.6	-0.21	O=C(c1ccc(Cl)cc1[N+](=O)[O-])N1CCc2ccccc2C1
0.06	0.41	N#CCCN(C(=O)Cn1nc(C(=O)O)c2ccccc2c1=O)c1ccccc1
1.4	0.11	CCc1ccc(CNC(=O)c2cc3c(C)nc4ccccc4c3o2)cc1
0.31	1.1	COc1cc(NC(=O)C2CC2C)c(C(=O)O)cc1OC (stereo not drawn)
0.48	0.85	CCCCN(c1ccccc1)c1ncnc(N)c1[N+](=O)[O-]

Other compounds
KCNQ2 enhance	KCNQ2 enhance baseline	canonical_smiles
2.3	0.19	Cc1ccc2nc(=O)c(NNc3ccccc3)cnc2c1
0.07	-0.41	CN(C)CCN(C(=O)C1CCN(S(=O)(=O)c2cccs2)CC1)c1nc2ccc(F)cc2s1
0.4	-1.3	COC(=O)c1sc(NC(=O)C(C)C)c(C(=O)OC)c1C
1.7	-1.1	COc1ccc(S(=O)(=O)NC2(C(F)(F)F)N=C(c3ccccc3)NC2=O)cc1 (stereo not drawn)
0.08	-2	C/C=C/C(=O)Nc1cccc(C2=NOC3(C2)C[C@@H](C(N)=O)N(C(=O)c2cc([N+](=O)[O-])cc([N+](=O)[O-])c2C)C3)c1 (stereo partly drawn)
0.36	-0.45	Nc1nc(SCc2ccc(Cl)cc2Cl)n[nH]1

Of the compounds above, these have a CF3 group.
KCNQ2 enhance	KCNQ2 enhance baseline	canonical_smiles
0.91	0.01	C/C(=N\NC(=O)CNc1cccc(C(F)(F)F)c1)c1cccs1
1.7	-1.1	COc1ccc(S(=O)(=O)NC2(C(F)(F)F)N=C(c3ccccc3)NC2=O)cc1 (stereo not drawn)
